# Insulin prom inh = TRM-6 insulin promoter activity inhibition; TRM-6 cells (human fetal islet line), insulin promoter-eGFP reporter, imaging; reporter expression induced with tamoxifen; inhibition, % at 2 µM; 130,000 compounds, 0.9% hits;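 active = inhibition above the mean plus 3 SD, with well images judged a real hit on visual review, cut at about 60% in these data, passing the limit was not always enough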
# PKD1 inh = PKD1 (human) kinase inhibition; Q15139; PKD1 kinase fluorescence polarization assay; inhibition, %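 (about 10 µM by stock and volumes)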; 200,000 compounds, 0.056% hits;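 active = inhibition of 50% or more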;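 note: controls were vehicle for no effect and a reference inhibitor for full effect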
# HSV replic up = HSV replication enhancement; HSV replication augmentation in cells, fold increase; maximum fold increase; 220,000 compounds, 0.005% hits; AID 1956;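 active = peak rise of 1.5-fold or more in the series; tested in PC3 cells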;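 note: first round at 10 µM; read as green reporter fluorescence; hits show the peak of a series up to 25 µM; 1 = signal of infected wells without compound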
# RGS16-Gao HTS = modulates binding between human RGS16 and Galphao; O15492+P09471; 220,000 compounds, 0.38% hits; binding response (% of control), % at 10 µM; bead-based flow cytometry RGS16-Galphao binding, fluorescence; actives lie on both sides; AID 1441;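 active = below 25% or above 175%, edge rows of some plates excepted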;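 note: Galphao activated by GDP with aluminum fluoride before binding; 100% = wells without compound and 0% = beads without RGS; some results beyond the cut were filed as inactive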
# Target sequence (O15492 whole entry, looked up): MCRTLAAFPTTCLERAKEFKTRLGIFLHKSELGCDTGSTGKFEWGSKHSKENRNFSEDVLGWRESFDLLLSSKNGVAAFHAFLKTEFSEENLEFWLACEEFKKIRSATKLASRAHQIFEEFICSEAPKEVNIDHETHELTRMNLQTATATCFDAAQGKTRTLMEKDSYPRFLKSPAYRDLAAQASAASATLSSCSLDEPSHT
# Target sequence (P09471 whole entry, looked up): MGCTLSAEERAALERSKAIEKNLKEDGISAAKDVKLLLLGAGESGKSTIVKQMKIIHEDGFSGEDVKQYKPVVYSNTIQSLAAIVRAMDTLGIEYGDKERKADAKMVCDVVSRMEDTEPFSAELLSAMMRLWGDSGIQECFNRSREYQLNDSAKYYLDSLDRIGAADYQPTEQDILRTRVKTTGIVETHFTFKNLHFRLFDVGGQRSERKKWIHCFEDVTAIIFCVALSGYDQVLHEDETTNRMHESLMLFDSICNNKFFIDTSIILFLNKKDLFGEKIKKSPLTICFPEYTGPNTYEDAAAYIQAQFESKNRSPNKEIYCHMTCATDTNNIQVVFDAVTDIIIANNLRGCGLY
# GALR2 agonist = activates the human galanin receptor 2; activation, %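 (tested at 5 µM)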; 140,000 compounds, 0.48% hits; AID 803; GALR2-expressing cells, agonist activation read-out;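 active = above mean plus 3 SD of all compounds, about 5% in these data, not always enough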;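 note: 0% = vehicle buffer wells and 100% = reference agonist at full effect; tested in CHO reporter cells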
# Target sequence (O43603 whole entry, looked up): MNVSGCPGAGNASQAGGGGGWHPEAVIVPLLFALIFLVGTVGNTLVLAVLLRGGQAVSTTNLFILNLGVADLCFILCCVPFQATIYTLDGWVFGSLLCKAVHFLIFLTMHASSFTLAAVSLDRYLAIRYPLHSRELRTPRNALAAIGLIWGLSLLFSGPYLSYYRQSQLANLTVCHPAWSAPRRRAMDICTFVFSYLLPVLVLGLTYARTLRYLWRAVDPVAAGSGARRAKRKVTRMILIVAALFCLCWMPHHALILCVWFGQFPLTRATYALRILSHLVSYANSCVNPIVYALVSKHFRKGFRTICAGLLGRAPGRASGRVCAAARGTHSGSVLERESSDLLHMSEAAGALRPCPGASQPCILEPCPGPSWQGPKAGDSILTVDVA
# Insulin prom inh cell count = also measured in Insulin prom inh; calls as there; normalized cell count, %; measured here: cell count, toxicity; reference of the scale not given here;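 cells exposed to compound for 48 h; stained nuclei by imaging scaled within each plate; lower means fewer cells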
# HSV replic up primary fold = also measured in HSV replic up; calls as there; fold increase; compound at 10 µM; measured here: primary screen fold increase 10 uM; tested in PC3 cells;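 GFP signal in the first replicate; 1 = infected wells without compound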
# Numbers without * were called inactive; i = inactive; . = no result given; & = joins results of further samples. Rows are unselected. About 1.3% of those tested had a hit in this group.
# Field names: A = Insulin prom inh; B = Insulin prom inh cell count; C = PKD1 inh; D = HSV replic up; E = HSV replic up primary fold; F = RGS16-Gao HTS; G = GALR2 agonist
Cc1cccc(C(=O)N2CCC(=O)N(C(COCc3cccc(C(F)(F)F)c3)Cc3ccccc3)CC2)c1 (stereo unspecified)
  A = -36; B = 123; C = -2; D = i; E = 0.82; F = 104; G = -0.8
CN(CCc1ccccn1)S(=O)(=O)c1ccc2c3c(cccc13)C(=O)N2
  A = 10; B = 115; C = -6; D = i; E = 0.83; F = 99; G = -1.9
COC(=O)Nc1ccc(S(=O)(=O)N2CCC(C)CC2)cc1
  A = .; B = .; C = 2; D = i; E = 0.9; F = 117; G = 0.5
CCn1c(/N=C/c2c[nH]c3ccccc23)nc2ccccc21
  A = .; B = .; C = 0; D = i; E = 0.83; F = 99; G = -2.5
CCCCn1c(SCC(=O)c2ccc(O)c(O)c2)nc2ccsc2c1=O
  A = .; B = .; C = 4; D = i; E = 0.95; F = 89; G = 0.8
O=C(NNC(=O)c1ccc(Oc2ccc(C3SCCS3)cc2)o1)c1ccc(Cl)cc1
  A = .; B = .; C = .; D = i; E = 1.1; F = 99; G = .
CCCC(C)c1nnc(NC(=O)CS(=O)(=O)Cc2ccccc2)s1 (stereo unspecified)
  A = -18; B = 164; C = -12; D = i; E = 1; F = 104; G = -1.2
CC(=O)c1sc(=S)n(-c2ccc(Cl)cc2)c1C
  A = .; B = .; C = -8; D = i; E = 0.95; F = 100; G = .
O=C(O)Cc1ccc(NC(=S)NCc2ccco2)cc1
  A = -11; B = 103; C = -7; D = i; E = 0.92; F = 98; G = 1.1
CC(C)CCC(O)(CCC(C)C)C(=O)NN1CCCCC1
  A = .; B = .; C = -3; D = i; E = 1.1; F = 97; G = -1.3
CC12CCC(C(=O)NCc3ccc4c(c3)OCO4)(OC1=O)C2(C)C (stereo unspecified)
  A = -117; B = 66; C = -16; D = i; E = 0.99; F = 100; G = -2.4
COc1cccc(NC(=O)c2ccc(NCCCN3CC(C)CC(C)C3)c([N+](=O)[O-])c2)c1 (stereo unspecified)
  A = -25; B = 69; C = -3; D = i; E = 0.63; F = 110; G = .
Cc1cc(C)c2cc(C#N)c(SCC(=O)NCc3ccco3)nc2c1
  A = .; B = .; C = -2; D = .; E = .; F = 95; G = 0.6
COc1ccc2cc(CN(CC3CCCO3)C(=S)Nc3ccccc3)c(=O)[nH]c2c1 (stereo unspecified)
  A = 7; B = 85; C = -7; D = i; E = 0.61; F = 104; G = .
Cc1ccc(C)c(N(C)C(=O)c2cc3c(=O)[nH]c4ccc(C)cc4c3s2)c1
  A = .; B = .; C = .; D = i; E = 0.88; F = 110; G = .
CC(=O)Nc1cccc(OCC(=O)Nc2sccc2C(N)=O)c1
  A = .; B = .; C = .; D = i; E = 0.97; F = 98; G = .
C=C(C)CC(Nc1ccc(OC)cc1)c1ccco1 (stereo unspecified)
  A = .; B = .; C = -8; D = i; E = 1.3; F = 100; G = .
Cc1cc(C(=O)NCC(C)C)c2ccccc2n1
  A = 2; B = 113; C = -3; D = i; E = 1; F = 104; G = -3.7
CCOC(=O)N1CCN(S(=O)(=O)c2ccc(C(=O)NNc3nc4cc(C)cc(C)c4s3)cc2)CC1
  A = 27; B = 117; C = -2; D = i; E = 0.87; F = 96; G = -1.9
CC(C)c1ccc(N2CCN(C(=O)c3ccccc3NC(=O)/C=C\C(=O)O)CC2)cc1
  A = -72; B = 1; C = 3; D = i; E = 1; F = 97; G = 0.2
COc1ccc2cc(C(=O)C3CCCN(C(=O)c4csnn4)C3)ccc2c1 (stereo unspecified)
  A = .; B = .; C = -1; D = i; E = 1.1; F = 98; G = .
O=C(CN(CC1CCCO1)C(=O)CNS(=O)(=O)c1ccccc1)NCc1ccco1 (stereo unspecified)
  A = 7; B = 119; C = -1; D = i; E = 1.1; F = 104; G = .
c1ccc(CSc2ccc3nnc(-c4ccccn4)n3n2)cc1
  A = -26; B = 61; C = 38; D = i; E = 0.97; F = 96; G = .
CNC(=S)N(CCc1c(C)[nH]c2ccccc12)Cc1cc(OC)c(OC)c(OC)c1
  A = -48; B = 116; C = -7; D = .; E = .; F = .; G = -1.2
N#C/C(C(=O)NCc1ccco1)=C1/SC(Cc2ccc(F)cc2)C(=O)N1c1ccccc1 (stereo unspecified)
  A = 4; B = 90; C = -5; D = i; E = 1.1; F = 101; G = -2.2
Cc1nc(N)c(C#N)c(-c2ccccc2Cl)c1C
  A = 9; B = 122; C = -2; D = i; E = 1.1; F = 99; G = -3.0
CN1C(=O)N(c2cccc3ccccc23)C(n2cncn2)C1(C)C (stereo unspecified)
  A = -3; B = 90; C = 12; D = i; E = 1; F = 98; G = -2.7
O=C(C1CCN(Cc2ccc(F)cc2)CC1)N1CCN(C/C=C/c2ccccc2)CC1
  A = .; B = .; C = 2; D = i; E = 1.1; F = 93; G = .
Cc1ccc2c(c1)nnn2C1CCN(CC(=O)N2CCN(c3ccc(F)cc3)CC2)CC1
  A = -24; B = 79; C = 4; D = .; E = .; F = 108; G = -0.8
CCOC(=O)N1CCN(C(=O)C2CCN(Cc3cccc(OCc4ccccc4)c3)CC2)CC1
  A = -53; B = 153; C = -1; D = i; E = 1; F = 102; G = -0.3
O=C(/C=C/c1ncc(C(F)(F)F)cc1Cl)OCc1ccccc1
  A = -15; B = 92; C = 4; D = i; E = 1.1; F = 93; G = -3.0
O=C1COc2cccnc2N1
  A = .; B = .; C = -2; D = i; E = 0.73&1.2; F = 104&102; G = -2.7
CCC(C)(C)C1CCc2[nH]nc(C(=O)N/N=C(\C)c3ccco3)c2C1 (stereo unspecified)
  A = .; B = .; C = .; D = i; E = 0.86; F = 99; G = .
CC(=O)NCCC(=O)Nc1ccc(C)c(F)c1
  A = 17; B = 62; C = -6; D = i; E = 1.1; F = 142; G = -0.5
COc1ccc(C2(CNC(=O)c3ccccc3)CCOCC2)cc1
  A = .; B = .; C = .; D = i; E = 1; F = 91; G = .
Cc1nnc(SCc2cnc(-c3ccc(C(C)C)cc3)s2)n1C
  A = .; B = .; C = -8; D = i; E = 1.3; F = 81; G = -0.6
O=c1[nH]c2ccccc2nc1C(Nc1ccccc1)c1ccccc1 (stereo unspecified)
  A = .; B = .; C = .; D = i; E = 0.84; F = 103; G = .
CCCc1ccc(OCCNC(=O)CC)cc1
  A = 31; B = 87; C = -9; D = i; E = 0.91; F = 85; G = -1.1
CCCCC(=O)OCc1cn(-c2ccc(Cl)cc2)nn1
  A = -38; B = 130; C = 15; D = i; E = 1.2; F = 96; G = -3.0
O=C(O)c1cccc(CSc2ncccn2)c1
  A = -184; B = 65; C = -1; D = i; E = 0.79; F = 106; G = -2.2
Cc1cc(C)cc(NC(=O)N2CCCC2C(=O)Nc2ccc(-n3cnnn3)c(C)c2)c1 (stereo unspecified)
  A = -53; B = 168; C = -5; D = i; E = 0.98; F = 88; G = -3.1
CC(=O)c1c(OC(=O)c2ccccc2)c2ccccc2n1C
  A = .; B = .; C = -3; D = i; E = 0.71; F = 102; G = -2.2
COc1ccc(N2CCN(CC(=O)Nc3c(C)cc(C)cc3C)CC2)cc1
  A = 27; B = 104; C = 0; D = i; E = 0.95; F = 101; G = 0.6
Cc1ccc(CNC(=O)C(=O)NCC2OCCN2S(=O)(=O)c2ccc3c(c2)OCCO3)cc1 (stereo unspecified)
  A = -120; B = 81; C = -14; D = i; E = 0.88; F = 87; G = 0.1
CNC(=O)c1ccsc1NC(=O)c1ccc(S(=O)(=O)N2CCOCC2)cc1
  A = -94; B = 67; C = 13; D = i; E = 0.81; F = 105; G = 1.3
O=C(O)c1cccc(NS(=O)(=O)c2ccc(Cl)c(C(=O)O)c2)c1
  A = .; B = .; C = 1; D = i; E = 0.8; F = 102; G = -0.9
CCc1nnc(NC(=O)CSc2nnc3ncccn23)s1
  A = -33; B = 66; C = 1; D = i; E = 1.1; F = 108; G = -0.9
COc1ccccc1OCCNC(=O)C1CCCCC1
  A = .; B = .; C = 2; D = i; E = 0.93; F = 104; G = .
CC1CC(C)CN(C(=O)C2CCCN(S(=O)(=O)c3cnc[nH]3)C2)C1 (stereo unspecified)
  A = .; B = .; C = .; D = i; E = 0.95; F = 100; G = .
Cc1cc[n+](CC(=O)c2ccc3c(c2)OCCO3)cc1
  A = .; B = .; C = -3; D = i; E = 1.2; F = 103; G = -0.5

# New compounds follow:
# Field names: A = Insulin prom inh; B = Insulin prom inh cell count; C = PKD1 inh; D = HSV replic up; E = HSV replic up primary fold; F = RGS16-Gao HTS; G = GALR2 agonist
CN1c2ccccc2C(C)(C)C12CC(c1ccc(Cl)c(S(=O)(=O)N3CCCC3)c1)=NO2 (stereo unspecified)
  A = -4; B = 106; C = -6; D = i; E = 0.91; F = 107; G = -1.9
COc1ccc(S(=O)(=O)Nc2cc(C(=O)NCCC(C)C)ccc2N2CCOCC2)cc1
  A = .; B = .; C = -6; D = i; E = 0.8; F = 102; G = -1.8
COC(=O)c1cc(S(=O)(=O)NCc2ccc(S(N)(=O)=O)cc2)oc1C
  A = .; B = .; C = .; D = i; E = 1.1; F = 100; G = .
CCOC(=O)CCC(=O)N(CCN(C(=O)CCC(=O)OCC)c1ccccc1)c1ccccc1
  A = 42; B = 102; C = -13; D = i; E = 1; F = 32; G = 0.3
CC1CCN(S(=O)(=O)c2cn(CC(=O)N3CC(C)CC(C)C3)c(=O)c3ccccc23)CC1 (stereo unspecified)
  A = -28; B = 92; C = -1; D = i; E = 0.93; F = 185; G = -2.9
CC(C)Nc1ncnc2ccc(Br)cc12
  A = .; B = .; C = 14; D = i; E = 0.8; F = 99; G = -2.1
NS(=O)(=O)c1ccc(NC(=O)/C=C/c2ccccc2Cl)cc1
  A = .; B = .; C = 2; D = i; E = 0.87; F = 96; G = .
CN1CCC(=NNC(=O)C(=O)Nc2ccccc2)CC1
  A = .; B = .; C = -7; D = i; E = 0.83; F = 93; G = -2.5
CC(C)CN1C(=O)/C(=C(/C#N)C(=O)NC2CCCCC2)c2ccccc21
  A = -8; B = 133; C = 2; D = i; E = 0.93; F = 98; G = .
CC(C)C(C)(C#N)NC(=O)CSc1nc2scc(-c3ccc(F)cc3)c2c(=O)n1Cc1ccccc1 (stereo unspecified)
  A = .; B = .; C = 0; D = i; E = 0.92; F = 43; G = 0.2
CC(C)n1c(O)c(N=Nc2ccccn2)c2ccccc21
  A = -40; B = 92; C = -11; D = i; E = 0.93; F = 107; G = 0.2
CCCCNC(=O)COC(=O)c1ccc(SC)cc1OC
  A = 0; B = 86; C = -4; D = i; E = 0.84; F = 107; G = .
CCCc1c(C(=O)Nc2ccc(N3CCOCC3)cc2)cnn1-c1ccccc1
  A = .; B = .; C = .; D = i; E = 0.89; F = 98; G = .
Cc1cccc(NC(=O)CSc2nc3ccccc3c3nc(CCc4c(C)n[nH]c4C)nn23)c1
  A = -59; B = 126; C = -3; D = i; E = 0.75; F = 104; G = 0.1

# 10 entries from above, arranged by length of the SMILES, low to high.
# Field names: A = Insulin prom inh; B = Insulin prom inh cell count; C = PKD1 inh; D = HSV replic up; E = HSV replic up primary fold; F = RGS16-Gao HTS; G = GALR2 agonist
CC(C)Nc1ncnc2ccc(Br)cc12
  A = .; B = .; C = 14; D = i; E = 0.8; F = 99; G = -2.1
CCCCNC(=O)COC(=O)c1ccc(SC)cc1OC
  A = 0; B = 86; C = -4; D = i; E = 0.84; F = 107; G = .
CC(=O)c1c(OC(=O)c2ccccc2)c2ccccc2n1C
  A = .; B = .; C = -3; D = i; E = 0.71; F = 102; G = -2.2
COC(=O)Nc1ccc(S(=O)(=O)N2CCC(C)CC2)cc1
  A = .; B = .; C = 2; D = i; E = 0.9; F = 117; G = 0.5
O=c1[nH]c2ccccc2nc1C(Nc1ccccc1)c1ccccc1 (stereo unspecified)
  A = .; B = .; C = .; D = i; E = 0.84; F = 103; G = .
Cc1cc(C)c2cc(C#N)c(SCC(=O)NCc3ccco3)nc2c1
  A = .; B = .; C = -2; D = .; E = .; F = 95; G = 0.6
COc1ccc(N2CCN(CC(=O)Nc3c(C)cc(C)cc3C)CC2)cc1
  A = 27; B = 104; C = 0; D = i; E = 0.95; F = 101; G = 0.6
CCCc1c(C(=O)Nc2ccc(N3CCOCC3)cc2)cnn1-c1ccccc1
  A = .; B = .; C = .; D = i; E = 0.89; F = 98; G = .
COc1ccc2cc(CN(CC3CCCO3)C(=S)Nc3ccccc3)c(=O)[nH]c2c1 (stereo unspecified)
  A = 7; B = 85; C = -7; D = i; E = 0.61; F = 104; G = .
COc1cccc(NC(=O)c2ccc(NCCCN3CC(C)CC(C)C3)c([N+](=O)[O-])c2)c1 (stereo unspecified)
  A = -25; B = 69; C = -3; D = i; E = 0.63; F = 110; G = .
